Six1-Eya2 blk: inhibitors of human Six1/Eya2 interaction; AlphaScreen GST-Six1/His-Eya2 binding, biochemical; hits give low values; control for the full effect not named in the record; Q15475+O00167; 360,000 compounds, 0.56% hits; activity change, % (test concentration not listed); AID 651725; in the data active = activity change below about -65%; inconclusive = about -30% to -65%; inactive = above about -30%; also: % is scaled to controls: 0 for no effect and ±100 for the full control effect
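GST-Six1 + His-Eya2 (5X stock: 250/500 nM); Tris pH 8.0, 300 mM NaCl, 0.05% BSA, 0.02% Tween 20; GSH donor/Ni acceptor beads; 1 h 37 °C dark; AlphaScreen readout.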
PINK1 modulator: changes PINK1 expression; PINK1 immunofluorescence, high-content cytometry, 24 h; Potency, µM (doses to about 76.6 µM), for inactives: at the highest dose activation (PINK1 increase), actives largely listed as activators; 410,000 compounds, 0.2% hits; active = well fitted activation curve with a large enough effect; inconclusive = small, poorly fitted or top-dose-only effect; inactive = flat fitted curve, though single readings scatter; cell line not stated here;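 also: potency is read from the fitted curve at half-maximal effect; % of control where 0% means no effect; nearly all actives have a fitted effect of over 65% in size; a mitochondrial uncoupler was the plate control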
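Compound titrations (5 concentrations, 24 h) on a stable cell line; DMSO and CCCP controls. Endpoint: fixed-cell PINK1 immunofluorescence with mitochondrial, cell and nuclear markers, scanned by microplate cytometer.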
D2 agonist: human D2 receptor agonism in beta-arrestin assay; P14416; DiscoveRx PathHunter D2 beta-arrestin, luminescence, 90 min; 100% = 57 uM dopamine signal; activation, % (concentration not given with the values); 360,000 compounds, 0.084% hits; in the data active = activation above about 40%; inconclusive = about 15% to 40%; inactive = below about 15%; also: the text of the record calls up to 30% inactive
Target sequence (P14416 whole entry, looked up): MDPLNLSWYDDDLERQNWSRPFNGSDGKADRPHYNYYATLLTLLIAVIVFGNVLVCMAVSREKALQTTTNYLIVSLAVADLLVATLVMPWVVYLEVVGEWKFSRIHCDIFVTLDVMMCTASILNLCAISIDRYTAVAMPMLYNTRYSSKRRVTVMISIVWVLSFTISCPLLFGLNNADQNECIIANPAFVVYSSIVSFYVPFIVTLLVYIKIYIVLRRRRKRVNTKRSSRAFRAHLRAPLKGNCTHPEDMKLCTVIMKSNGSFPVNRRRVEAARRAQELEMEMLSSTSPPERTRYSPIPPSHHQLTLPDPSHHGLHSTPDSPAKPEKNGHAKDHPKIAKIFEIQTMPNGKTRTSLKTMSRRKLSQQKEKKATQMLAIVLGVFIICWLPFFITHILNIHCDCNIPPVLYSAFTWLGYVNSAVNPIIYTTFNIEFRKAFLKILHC
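DiscoveRx PathHunter D2 beta-arrestin cells (2,100/well) attached overnight, then compound-stimulated 90 min at 37 C in HBSS/10 mM HEPES/0.1% Tween-20 buffer; beta-galactosidase complementation read by luminescence after 1 h at ambient temperature. Dopamine 57 uM final (EC100) as control.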
CtBP-E1A inh: CtBP/E1A binding inhibition. AlphaScreen GST-E1A/His-CtBP binding, 1536-well; hits give low values; control for the full effect not named in the record. activity change, % (test concentration not listed). 340,000 compounds, 0.49% hits. AID 651724; in the data active means activity change below about -65%; inconclusive means about -30% to -65%; inactive means above about -30%; also: % is scaled to controls: 0 for no effect and ±100 for the full control effect
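Homogeneous bead-based format: GST-tagged E1A captured on glutathione donor beads, His-tagged CtBP on nickel acceptor beads; compounds precede bead addition by 2 h at 37 °C.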
TRPML1 inh: blocks the human TRPML1 channel | TRPML1-inducible cells, Ca2+ dye fluorescence, FDSS; hits give low values; inhibition of EC80 agonist-evoked calcium signal | activity change, negative = inhibition, % (no concentration beside the values) | 390,000 compounds, 0.02% hits | AID 624415 | Q9GZU1; in the data active means activity change below about -50%; inconclusive means about -30% to -50%; inactive means above about -30%;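 also: stimulus is agonist 54-4 at its EC80 concentration; % is scaled to controls: 0 for no effect and ±100 for the full control effect; compound concentration not given in the record; the text of the record puts the active cut at -80%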
Target sequence (Q9GZU1 whole entry, looked up): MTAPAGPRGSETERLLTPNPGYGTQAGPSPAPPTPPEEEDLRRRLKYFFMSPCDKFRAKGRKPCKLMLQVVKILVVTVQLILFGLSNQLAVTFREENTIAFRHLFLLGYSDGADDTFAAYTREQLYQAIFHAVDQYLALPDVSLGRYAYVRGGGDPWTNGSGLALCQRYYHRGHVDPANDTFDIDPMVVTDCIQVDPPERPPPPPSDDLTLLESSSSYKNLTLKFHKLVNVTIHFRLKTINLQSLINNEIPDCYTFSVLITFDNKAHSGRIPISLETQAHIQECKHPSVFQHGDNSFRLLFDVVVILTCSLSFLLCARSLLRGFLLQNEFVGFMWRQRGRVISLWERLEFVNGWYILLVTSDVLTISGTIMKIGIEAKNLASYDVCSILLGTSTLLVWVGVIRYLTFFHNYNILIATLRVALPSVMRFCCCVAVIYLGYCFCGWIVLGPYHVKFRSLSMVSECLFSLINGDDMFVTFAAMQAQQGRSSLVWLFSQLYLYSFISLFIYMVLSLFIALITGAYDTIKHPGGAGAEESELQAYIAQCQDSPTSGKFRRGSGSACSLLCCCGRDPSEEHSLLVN
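TRPML1-DL cells, Tet-induced overnight (~16 h, 37 °C) at 1,500 cells/well, were loaded with Ca8 no-wash dye plus quencher for 45-90 min at room temperature. Compounds were pinned during FDSS kinetic reading; agonist 54-4 at EC80 (4 uM final) then added.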
TRPML1 ag: activates the human TRPML1 channel; 410,000 compounds, 0.12% hits; Q9GZU1; activation, % (concentration not given with the values); AID 624414; TRPML1-expressing cells, Ca2+ dye fluorescence, FDSS; host cell line not named in the record; reference of the full effect not given here; in the data active = activation above about 50%; inconclusive = about 30% to 50%; inactive = below about 30%; also: 0% is about no effect; the text of the record puts the active cut at 80%
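Calcium fluorescence on an FDSS kinetic reader gave the read-out. Tet-induced TRPML1-DL cells were plated overnight, dye-loaded (Ca8 with quencher, 45-90 min, room temperature, dark), then read 110 s after compound addition, and again 110 s after 4uM final 54-4 (EC80).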
The depositor's hits bear a star; u = inconclusive; x = no result given; & = joins results of further samples; [ ] = another dose, or the depositor's remark.

SMILES | Six1-Eya2 blk | PINK1 modulator | D2 agonist | CtBP-E1A inh | TRPML1 inh | TRPML1 ag
COCCOC(=O)C1=C(C)NC(=O)NC1c1cccc(F)c1 (stereo unspecified) | 7 | 0.3% | -0.4 | 4 | 17 | -0.3
CC(=O)Nc1ccccc1NC(=O)c1ccccc1 | 2 | 1.6% | 2.0 | x | -5 | 0.4
O=[N+]([O-])c1ccc(NC2CCCCC2)nc1 | -4 | 2.2% | -4.2 | -3 | 3 | 0.5
O=C(Nc1ccccc1C(=O)O)c1cc(S(=O)(=O)NCc2ccccc2)ccc1Cl | -18 | 3.9% | 14 | -1 | 9 | 1.0
Cc1cc(=O)oc(C)c1C(=O)OCC(=O)c1ccccc1 | -3 | 1.4% | -1.8 | -1 | 31 | 1.7
COc1ccc(Nc2nc(N)c([N+](=O)[O-])c(NCc3ccccc3)n2)cc1 | 4 | -0.4% | 1.0 | x | 3 | 1.1
Cc1ccc(C)c(NC(=S)NCC(c2cccnc2)N2CCOCC2)c1 (stereo unspecified) | 0 | -1.6% | 2.4 | -1 | 1 | 3.1
CNc1ccccc(-c2ccc3ccccc3n2)c1=O | 5 | -0.5% | -3.6 | 5 | 11 | 2.1
CCOC(=O)c1ccc(CN(Cc2ccc(F)cc2)S(=O)(=O)c2ccc(F)c(C(=O)Nc3cc(Cl)ccc3OC)c2)cc1 | x | 1.9% | x | x | -5 | 1.3
CCc1ccccc1-n1cnc2cc(C(=O)NC3CCCCCC3)ccc21 | x | 6.8% | x | x | -15 | 1.5
CSc1ncccc1C(=O)Nc1nc2ccc(Oc3ccccc3)cc2s1 | -6 | 5.5% | 1.0 | x | -11 | 2.1
COc1cccc(OCCCCN2CCCCC2)c1 | 3 | 7.0%[38.3 µM] | -4.2 | 0 | -1 | 2.5
O=C(/C=C/c1cccc([N+](=O)[O-])c1)NCCN1CCOCC1 | 0 | x | -1.1 | 13 | -1 | 0.2
O=S(=O)(c1ccccc1)c1cccc(S(=O)(=O)N2CCCCC2)c1 | 2 | 0.1% | -1.7 | 2 | 15 | 0.1
Cc1nn(CC(=O)Nc2cccc(S(N)(=O)=O)c2)c(C)c1[N+](=O)[O-] | 3 | 0.0% | 0.6 | 20 | 0 | 0.5
Cc1ccc(CNc2c(C)c(C)nc3nncn23)cc1 | x | 0.9% | x | x | 22 | 1.6
Cc1c(NC(=O)c2cccnc2Cl)c(=O)n(-c2ccccc2)n1C | 5 | -0.4% | -4.8 | -25 | 10 | -0.9
O=C(NC(=S)N(CC1CCC1)CC1CCCO1)c1cccc([N+](=O)[O-])c1 (stereo unspecified) | 1 | -0.1% | -8.6 | x | 2 | -0.2
O=C(NC1CCCc2ccccc21)c1ccc(S(=O)(=O)N2CCOCC2)cc1 (stereo unspecified) | 4 | -1.7% | -2.6 | x | 16 | 3.0
COc1cccc(-c2nc3ccc(C(=O)NC(C)Cc4cccnc4)cc3o2)c1 (stereo unspecified) | -3 | 3.3% | -1.0 | -13 | -15 | 1.4
CCOc1ccccc1NC(=O)/C=C/C(N)=O | 6 | x | -0.4 | 6 | -6 | 0.4
Cc1cccc(CN2CCN(Cc3cccc4nonc34)CC2CCO)n1 (stereo unspecified) | 7 | 0.9% | -1.3 | 1 | 4 | -0.6
COC(=O)c1ccc(OCCOCCOc2cccc3ccc(C)nc23)cc1 | -12 | 1.1% | 0.3 | -19 | -8 | -0.5
CCCCC(=O)N(c1ccc(OCC)cc1)C1C=CS(=O)(=O)C1 (stereo unspecified) | -1 | x | -0.6 | 8 | 17 | -0.1
Clc1ccc(-c2nnc(-c3ccccc3)o2)c(Cl)c1 | 9 | -6.0%[38.3 µM] | -0.6 | 10 | 9 | 0.7
O=C(Nc1ccccc1C(=O)O)c1ccc2c(c1)C(=O)N(c1cccc([N+](=O)[O-])c1)C2=O | -5 | 0.8% | 2.7 | 4 | -18 | 0.8
Cc1ccc2c(=O)c(C(=O)c3cccc(Cl)c3)cn(CC(=O)NCc3ccc(F)cc3)c2n1 | x | -0.6% | x | x | 4 | -0.8
O=C(NCCc1ccc(Cl)cc1)C1CCC(=O)N(C2CCCCCC2)C1 (stereo unspecified) | -1 | -0.8% | -2.2 | 7 | 12 | -0.5
O=C(Nc1ccc(-c2nnc(-c3ccccc3)o2)cc1)c1ccc(Br)o1 | 5 | 1.2% | -1.0 | 6 | 3 | -0.1
COc1ccc(-c2c(C(=O)O)nc3ccccc3c2C(=O)O)cc1 | 5 | 2.6%[38.3 µM] | -3.1 | 4 | 18 | 1.5
COc1cccc(CN(C)C(=O)c2ccc(S(=O)(=O)N3CCCC3)cc2)c1OC | 3 | -2.3% | 3.6 | 8 | 9 | 0.7
Cc1ccc(S(=O)(=O)NN=C2C(=O)C3CCC2C3Cl)cc1 (stereo unspecified) | 5 | 5.9% | 1.0 | -1 | -5 | 0.7
CN1C(=O)/C(=C/c2ccc(OC(=O)c3ccco3)cc2)SC1=S | -5 | 2.7% | 0.4 | -11 | 3 | -0.4
N#C/C(=C/c1cccc(O)c1)C(=O)NCc1ccc(Cl)cc1 | 5 | 4.6% | -5.6 | -6 | -1 | 0.7
CCOC(=O)c1ccc(NC(=O)CN2C(=O)C(=O)N(CC(C)C)C2=O)cc1 | -1 | 0.4%[38.3 µM] | -0.1 | 4 | -11 | 0.1
O=C(Cc1cccs1)Nc1cccc(C(=O)Nc2ccc(C(=O)O)cc2)c1 | 1 | 1.3% | 2.4 | x | -12 | 1.2
Cc1c(N(C)CS(=O)(=O)O)c(=O)n(-c2ccccc2)n1C | 5 | -0.7% | -1.7 | 4 | -7 | -0.2
Cc1ccccc1NC(=O)CC(C)S(=O)(=O)c1ccc2c(c1)NC(=O)CO2 (stereo unspecified) | 6 | -0.2% | 1.7 | -8 | -2 | 0.0
COc1ccc2[nH]c(C(O)(Cc3cccnc3)Cc3cccnc3)cc2c1 | 15 | -0.9% | -3.1 | -2 | 12 | 0.4
COc1ccc2cc(CCNC(=O)c3c(-c4ccccc4Cl)noc3C)c(=O)[nH]c2c1 | -29 | 0.3% | -2.8 | u | -9 | -0.8
CC(NC(=S)NNS(=O)(=O)c1ccc(C(C)(C)C)cc1)c1ccccc1 (stereo unspecified) | 1 | 9.6% | -3.3 | 10 | 11 | -0.6
O=C(c1ccccc1)c1ccc2nc(N3CCN(C(=O)c4ccco4)CC3)c3nncn3c2c1 | -21 | 2.2% | -7.7 | -9 | -7 | -0.1
CCc1ccc(CN2C(=O)c3ccccc3C2C(=O)NC2CCCCCC2)cc1 (stereo unspecified) | x | 1.8% | x | x | 25 | 3.2
CC1c2cc3c(cc2CCN1CC(=O)Nc1ccccc1)OCCCO3 (stereo unspecified) | 0 | -0.4% | 11 | -19 | -8 | -0.2
COc1ccc(CNC(=O)CN(c2ccccc2OC)S(=O)(=O)c2cccs2)cc1 | -3 | 4.6% | 1.7 | x | 11 | -0.2
CCOC(=O)C1=CN(Cc2cccc(F)c2)S(=O)(=O)N(C)C1CCc1ccccc1 (stereo unspecified) | 32 | 1.4% | -1.5 | 13 | 1 | 3.0
Cc1ccc(C(OC(=O)c2ccco2)C(=O)NC2CCCCC2)cc1 (stereo unspecified) | -3 | -0.1% | -2.6 | -5 | -11 | 3.7
CC1CN(C(=O)Nc2ccc(C(=O)NCCc3ccccc3)cc2)c2ccccc2S1 (stereo unspecified) | x | -2.0% | x | x | 4 | 3.8
CN(C)c1ccc(N2[C@@H](CC(=O)O)c3cc(C(F)(F)F)ccc3S2(=O)=O)cc1 | -4 | 2.3% | -0.9 | x | -25 | 0.2&-0.5
O=C1c2c(Cl)c(Cl)c(Cl)c(Cl)c2C(=O)N1c1nccs1 | -11 | -2.5% | 1.0 | 2 | 30 | 0.2
COc1ccc(CCN(Cc2cccs2)S(=O)(=O)c2ccc(S(=O)(=O)N(C)C3CCCCC3)cc2)cc1OC | 4 | 1.7% | 2.9 | 7 | 4 | 0.5
Cc1ccc(-c2nnc(SCC(=O)N3CCCC3)o2)cc1 | 20 | 0.0% | -2.4 | -1 | -2 | 0.1
O=S(=O)(Nc1ccccc1F)c1ccc2nsnc2c1 | 5 | x | -2.5 | 6 | -6 | -0.2
COc1cccc(NC(=O)C2(C)CCCN2C(=O)C(C)C)c1OC (stereo unspecified) | 6 | 1.1% | -2.5 | 1 | 2 | -0.1
CCOC(=O)c1c(N/N=C/c2cccnc2)n[nH]c1C | -2 | 7.4% | -6.3 | -2 | -5 | 1.4
COc1ccc(CN(C(=O)c2cc(=O)c3ccccc3o2)C2CCS(=O)(=O)C2)cc1 (stereo unspecified) | 1 | -0.6% | -3.6 | 6 | 1 | -1.0
Cc1ccc(NC(=O)Cc2cc(C(=O)O)c3ccccc3n2)c(C)c1 | 4 | u | 13 | x | 22 | 0.3
CC(C)(C(=O)c1ccccc1)/[N+]([O-])=C/c1ccccc1 | 3 | -0.3%[38.3 µM] | -2.6 | 3 | 17 | -0.2
Cc1[nH]c(=O)[nH]c(=O)c1/C=N/NC(=O)[C@H](C)NC(=O)OC(C)(C)C | -20 | -0.5% | -1.0 | -19 | 4 | -0.1
Cc1ccc(C2C(=O)N(C3CCCC3)CC(=O)N2C2CCCCC2)cc1 (stereo unspecified) | 12 | 0.8% | -2.0 | -2 | 5 | 0.3

Later entries.
SMILES | Six1-Eya2 blk | PINK1 modulator | D2 agonist | CtBP-E1A inh | TRPML1 inh | TRPML1 ag
COc1ccc(CC(=O)N2CCN=C2SCc2cccc([N+](=O)[O-])c2)cc1 | -6 | 0.2% | -1.6 | -20 | 14 | 1.8
c1ccc(-c2ccncc2)nc1 | 0 | -0.9% | -7.6 | 7 | 8 | 0.4
COCCN1CCN(C(=O)C2CCC(=O)N(Cc3cccc(C(F)(F)F)c3)C2)CC1 (stereo unspecified) | 0 | 2.2% | -3.4 | 4 | -5 | 1.1
CCN1C(=O)/C(=C\c2ccncc2)SC1=Nc1ccc(C)c(C)c1 | -19 | -0.1% | -11 | -2 | 5 | -1.2
Cc1c(F)cccc1NS(=O)(=O)c1ccc2c(c1)n(C)c(=O)c(=O)n2C | 4 | -1.3% | 0.4 | 12 | -6 | 0.1

Compound activity deposited in PubChem by National Center for Advancing Translational Sciences (NCATS).
